Arbovirus inh = blocks arbovirus infection; arbovirus infection cell-based antiviral screen; inhibition, % at 10 µM; 200,000 tested, 0.37% active;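 active = inhibition from about 30%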;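 note: bluetongue infection of BSR cells; cell survival read as ATP light after 72 h; 0% = infected wells without compound and 100% = uninfected wells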
Mtb betalactam = beta-lactam sensitization of Mtb H37Rv | M. tuberculosis H37Rv growth with meropenem, percent inhibition; hits of this screen are not shown here | inhibition, % at 25 µM | 330,000 tested, 0.27% active;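 active = about 74% or more and at least 40 points above the plate without the antibiotic, then above 30% in a dose series; inconclusive = first-round hits that could not be retested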;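 note: growth measured after seven days incubation then overnight dye step; 0% = bacteria only wells and 100% = bacteria with antibiotic; twin plates without the antibiotic show which effects depend on it; some results filed as inactive read as strong as hits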
Mtb growth = M. tuberculosis H37Rv growth inhibitors, H37Rv strain (AID 1626); M. tuberculosis H37Rv growth inhibition; higher % means a stronger effect; inhibition, % at 10 µM; hits with a dose series show IC50 in µM; 220,000 tested, 0.95% active;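 active = confirmed in a dose series; inconclusive = inhibition above 80% but not taken into the dose series; inactive = below 80% or under 30% at every dose of the series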;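 note: bacteria incubated seven days before Alamar blue readout; 0% = bacteria only wells and 100% = bacteria with antibiotic wells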
RecA splice inh = inhibitors of M. tuberculosis RecA intein splicing; cell-free RecA intein splicing, fluorescence; inhibition, %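 (about 9 µM by stock and volumes)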; 290,000 tested, 0.75% active; AID 2221; in the data active = inhibition above about 30%; inconclusive = no clear call, values can overlap the other calls;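 note: 0% = vehicle wells and 100% = reference inhibitor control wells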
Target sequence (P9WHJ3 whole entry, looked up, canonical isoform): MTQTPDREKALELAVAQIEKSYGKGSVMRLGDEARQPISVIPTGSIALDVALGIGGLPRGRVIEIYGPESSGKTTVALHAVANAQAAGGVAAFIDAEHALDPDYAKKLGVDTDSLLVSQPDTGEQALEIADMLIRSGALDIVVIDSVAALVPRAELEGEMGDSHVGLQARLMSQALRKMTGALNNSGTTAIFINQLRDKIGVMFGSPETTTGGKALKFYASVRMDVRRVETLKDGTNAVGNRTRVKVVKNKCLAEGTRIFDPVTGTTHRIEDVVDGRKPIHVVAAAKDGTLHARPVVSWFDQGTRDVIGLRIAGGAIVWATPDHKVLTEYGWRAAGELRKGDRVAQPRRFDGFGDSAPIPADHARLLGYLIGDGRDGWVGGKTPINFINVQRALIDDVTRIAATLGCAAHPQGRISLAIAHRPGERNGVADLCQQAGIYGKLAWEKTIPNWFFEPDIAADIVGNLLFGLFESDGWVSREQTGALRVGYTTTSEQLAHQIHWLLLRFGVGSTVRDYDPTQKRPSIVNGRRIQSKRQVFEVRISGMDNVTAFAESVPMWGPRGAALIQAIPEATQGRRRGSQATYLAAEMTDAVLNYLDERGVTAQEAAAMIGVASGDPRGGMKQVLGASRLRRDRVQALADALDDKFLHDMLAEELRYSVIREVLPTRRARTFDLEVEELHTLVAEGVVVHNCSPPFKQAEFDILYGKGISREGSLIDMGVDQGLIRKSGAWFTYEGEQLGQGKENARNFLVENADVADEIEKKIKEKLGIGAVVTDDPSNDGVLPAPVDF
YopH inh = blocks Yersinia enterocolitica YopH tyrosine phosphatase. fluorescence Ex485/Em525. inhibition, %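 (about 10 µM by stock and volumes)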. 140,000 tested, 0.16% active. AID 898;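 active = inhibition of 50% or more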;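 note: controls were vehicle for no effect and minimum signal wells for full effect; inactives centre near -20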
Arbovirus inh repeat = also measured in Arbovirus inh; calls as there; inhibition, %; measured here: 10K subset replicate screen; many hits read low in the repeat;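 first of two repeat runs on a subset; 0% = infected and 100% = uninfected wells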
An asterisk follows results filed as active. A portion of the library; rates above refer to the full screens.

What do the screens show for `Cn1c(N)c(C(=O)COC(=O)c2cc(S(=O)(=O)N3CCCCC3)ccc2Cl)c(=O)n(C)c1=O`?
Arbovirus inh: 14; Mtb betalactam: 0; Mtb growth: 3%; RecA splice inh: 0.0; YopH inh: -32

What do the screens show for `Cc1ccc(CNC(=O)C(=O)NCCC2=CCCCC2)cc1`?
Arbovirus inh: -22; Mtb betalactam: 0; Mtb growth: 7%; RecA splice inh: 0.1; YopH inh: -10

Results for Cn1cccc1Cc1nnc(SCC(=O)N2CCOCC2)n1CCc1ccccc1 ?
Arbovirus inh: -3; Mtb betalactam: -1; Mtb growth: -7%; RecA splice inh: 0.4; YopH inh: -31

Results for O=C(CNS(=O)(=O)c1ccc(Br)cc1)NCc1ccncc1 ?
Mtb betalactam: 6; RecA splice inh: 0.3

Results for CCn1c(-c2ccccn2)nc2cc(S(=O)(=O)N(C)C)ccc21 ?
Mtb betalactam: 0; RecA splice inh: 1.2

What do the screens show for `CCOCCCNC(=O)c1ccc(NC(=O)C2CCCO2)cc1` (configuration not stated)?
Mtb betalactam: 0; RecA splice inh: -1.4

Results for Cc1ccccc1-c1nnc(-c2ccccc2C)o1 ?
Arbovirus inh: -4; Mtb betalactam: -3; Mtb growth: -5%; RecA splice inh: 3.7; YopH inh: -18

How did CN(C)S(=O)(=O)c1cc(NC(=O)COC(=O)Cc2ccc(Br)cc2)ccc1Cl do in these assays?
Arbovirus inh: 2; Mtb betalactam: 3; Mtb growth: -4%; RecA splice inh: 8.7; YopH inh: 6

What do the screens show for `CCOc1ccc(/C=C2\SC(=S)N(C)C2=O)cc1OC`?
Mtb betalactam: -2; Mtb growth: -7%; RecA splice inh: 0.1

How did COC(=O)c1ccc(Nc2cc(C)nc3ncnn23)cc1 do in these assays?
Arbovirus inh: -2; Mtb betalactam: 3; Mtb growth: 7%; RecA splice inh: -1.8; YopH inh: -44

Results for Cc1ccc(S(=O)(=O)N2CCN(C(=O)c3ccc(N4CCCCC4)c([N+](=O)[O-])c3)CC2)cc1 ?
Mtb betalactam: 11; RecA splice inh: 6.1

Results for C[C@H](NS(=O)(=O)c1ccccc1F)C(=O)OCC(=O)N1CCc2ccccc21 ?
Arbovirus inh: -2; Mtb betalactam: 0; Mtb growth: 2%; RecA splice inh: -1.1; YopH inh: -13

How did CCOc1ccc(OCC)c(S(=O)(=O)N2CCCCC2C)c1 (configuration not stated) do in these assays?
Arbovirus inh: -1; Mtb betalactam: -7; Mtb growth: 0%; RecA splice inh: 0.6; YopH inh: -28

What do the screens show for `O=C(Oc1ccc2cc(Br)ccc2c1)N1CCCCCC1`?
Arbovirus inh: -4; Mtb betalactam: 22; Mtb growth: 21%; RecA splice inh: 11; YopH inh: -23

Results for CCOC(=O)c1c(NC(=O)CSc2cccc[n+]2[O-])sc(C(=O)Nc2ccccc2)c1C ?
Arbovirus inh: 10; Mtb betalactam: -2; Mtb growth: 1%; RecA splice inh: -0.5

Results for CCN(CC)CCCNC(=S)N(Cc1cccs1)Cc1cc2cc3c(cc2[nH]c1=O)OCCO3 ?
Arbovirus inh: -21; Mtb betalactam: -11; Mtb growth: -6%; RecA splice inh: -4.3

What do the screens show for `COC(=O)c1ccc(NC(=O)c2cc[n+]([O-])cc2)cc1`?
Mtb betalactam: -1; RecA splice inh: 1.3

What do the screens show for `CCOC(=O)c1ccc(-n2ccnc2)c(NC(=O)c2cccc(Br)c2)c1`?
Arbovirus inh: 5; Mtb betalactam: -2; Mtb growth: 3%; RecA splice inh: -0.9; YopH inh: -26

What do the screens show for `CCCCNC(=O)NC1(C(F)(F)F)Oc2ccccc2O1`?
Arbovirus inh: -18; Mtb betalactam: 0; Mtb growth: -4%; RecA splice inh: -4.5; YopH inh: -22

What do the screens show for `O=C(C[C@H]1C(=O)N(C2CCCCC2)C[C@@H]1Cc1ccccc1)Nc1ccccc1`?
Mtb betalactam: 3; RecA splice inh: 5.1

The list goes on, overlapping the part above by three compounds.
What do the screens show for `CCOC(=O)c1ccc(-n2ccnc2)c(NC(=O)c2cccc(Br)c2)c1`?
Arbovirus inh: 5; Mtb betalactam: -2; Mtb growth: 3%; RecA splice inh: -0.9; YopH inh: -26

What do the screens show for `CCCCNC(=O)NC1(C(F)(F)F)Oc2ccccc2O1`?
Arbovirus inh: -18; Mtb betalactam: 0; Mtb growth: -4%; RecA splice inh: -4.5; YopH inh: -22

What do the screens show for `O=C(C[C@H]1C(=O)N(C2CCCCC2)C[C@@H]1Cc1ccccc1)Nc1ccccc1`?
Mtb betalactam: 3; RecA splice inh: 5.1

Results for Cc1cccc2cc(COC(=O)C3CCCCC3)c(=O)[nH]c12 ?
Arbovirus inh: 1; Mtb betalactam: -8; Mtb growth: 2%; RecA splice inh: -1.9; YopH inh: -43

Results for CCOC(=O)c1ccc(NC(=S)NC(=O)C2CCCC2)cc1 ?
Mtb betalactam: 98; RecA splice inh: 9.8

What do the screens show for `O=[N+]([O-])c1cccc(C2(O)COc3ccccc3O2)c1` (configuration not stated)?
Mtb betalactam: -5; RecA splice inh: -1.8

How did COc1cc(NC(=O)C2CCCCC2)c(OC)cc1NC(=O)c1ccco1 do in these assays?
Arbovirus inh: -5; Mtb betalactam: 85; Mtb growth: 35%; RecA splice inh: 1.8; YopH inh: -7

What do the screens show for `Cc1cccc(Cn2c(CN3CCN(Cc4ccccc4)CC3)nc3c2c(=O)[nH]c(=O)n3C)c1`?
Arbovirus inh: -8; Mtb betalactam: -5; Mtb growth: 5%; RecA splice inh: -0.1; YopH inh: -24; Arbovirus inh repeat: -14

How did Cc1ccc(-n2ncc(-c3nn[nH]n3)c2N)cc1 do in these assays?
Mtb betalactam: 2; Mtb growth: -5%; RecA splice inh: -1.7

How did O=C(N/N=C/c1cccc2ccccc12)c1cccc(F)c1 do in these assays?
Mtb betalactam: 2; RecA splice inh: 3.0

What do the screens show for `Cc1ccc(C(=O)OCC(=O)NNC(=O)c2ccccc2)c(O)c1`?
Mtb betalactam: -7; RecA splice inh: 0.7

How did COc1ccc(C(=O)N2CCCN(C)CC2)cc1S(=O)(=O)N1CCCc2ccccc21 do in these assays?
Arbovirus inh: -4; Mtb betalactam: -5; Mtb growth: 3%; RecA splice inh: -4.9; YopH inh: -51

Results for Cc1sc2nc(SCC(=O)C(C)(C)C)n(Cc3ccco3)c(=O)c2c1C ?
Arbovirus inh: -8; Mtb betalactam: 19; Mtb growth: 47%; RecA splice inh: 2.0; YopH inh: -12

What do the screens show for `COc1cccc(-c2cc(C(=O)Nc3cc(C)nn3-c3ccccc3)no2)c1`?
Arbovirus inh: -21; Mtb betalactam: -2; Mtb growth: -5%; RecA splice inh: 4.9; YopH inh: -11

Results for COc1ccc(CCNC(=O)C(CC(C)C)NC(N)=O)cc1 (configuration not stated) ?
Arbovirus inh: 10; Mtb betalactam: -2; Mtb growth: -13%; RecA splice inh: 0.3

What do the screens show for `COc1cccc(C2=CC(c3ccccc3)n3ncnc3N2)c1` (configuration not stated)?
Arbovirus inh: 13; Mtb betalactam: 1; Mtb growth: 0%; RecA splice inh: -273; YopH inh: -28

Results for O=C(Cn1[nH]c(=O)c2ccccc2c1=O)Nc1cccc(S(=O)(=O)N2CCCCCC2)c1 ?
Arbovirus inh: 10; Mtb betalactam: -2; RecA splice inh: 2.9

Results for Cc1nc2ccc(Cl)cc2c(-c2ccccc2Cl)c1CC(=O)O ?
Arbovirus inh: 10; Mtb betalactam: -1; Mtb growth: 0%; RecA splice inh: 1.3; YopH inh: -11

What do the screens show for `O=Nc1ccc(NOC(=O)c2ccccc2)cc1`?
Arbovirus inh: -1; Mtb betalactam: 46; Mtb growth: 1%; RecA splice inh: -9.5; YopH inh: -24

What do the screens show for `O=S(=O)(c1ccc(N2CC=C(c3ccccc3)CC2)nc1)N1CCCC1`?
Arbovirus inh: -3; Mtb betalactam: -8; Mtb growth: -15%; RecA splice inh: 6.3; YopH inh: -28; Arbovirus inh repeat: -7

How did O=C(OCC(=O)N1CCCc2ccccc21)C1CCN(S(=O)(=O)c2cccs2)CC1 do in these assays?
Arbovirus inh: 9; Mtb betalactam: -5; Mtb growth: 7%; YopH inh: -40

Results for O=C(N/N=C/c1cc([N+](=O)[O-])ccc1O)C1CC1 ?
Mtb growth: 9%; RecA splice inh: 0.1

Results for Cn1c(CNC(=O)C2CCCCC2)cc2cc(Cl)ccc21 ?
Mtb betalactam: -6; RecA splice inh: -0.5

Part of the list above in order of SMILES length, largest number first.
What do the screens show for `Cc1ccc(C(=O)OCC(=O)NNC(=O)c2ccccc2)c(O)c1`?
Mtb betalactam: -7; RecA splice inh: 0.7

What do the screens show for `COc1cccc(C2=CC(c3ccccc3)n3ncnc3N2)c1` (configuration not stated)?
Arbovirus inh: 13; Mtb betalactam: 1; Mtb growth: 0%; RecA splice inh: -273; YopH inh: -28

Results for Cn1c(CNC(=O)C2CCCCC2)cc2cc(Cl)ccc21 ?
Mtb betalactam: -6; RecA splice inh: -0.5

Following part
Results for O=C(O)c1c(F)c(F)c(F)c(F)c1-c1ccc(Cl)cc1 ?
Arbovirus inh: 4; Mtb betalactam: 1; Mtb growth: -4%; YopH inh: -9; Arbovirus inh repeat: -1

What do the screens show for `Cc1ccc(CNC(=O)[C@H](C)NC(=O)C2CCN(C(=O)[C@@H](N)CC(C)C)CC2)cc1`?
Mtb betalactam: -7; RecA splice inh: 1.0

Results for O=C(CSC1=NCCS1)Nc1cccc(F)c1 ?
Arbovirus inh: -3; Mtb betalactam: -3; Mtb growth: -2%; RecA splice inh: 8.0

How did C/C=C/C(=O)Nc1nnc(C(C)C)s1 do in these assays?
Arbovirus inh: 0; Mtb betalactam: -6; Mtb growth: -4%; RecA splice inh: -1.2; YopH inh: -9

Results for N/C(=N\OC(=O)c1cccc(Br)c1)c1ccc([N+](=O)[O-])cc1 ?
Mtb betalactam: 3; RecA splice inh: 0.8

Results for CCOc1ccc(OCC)c(NC(=O)C2CCN(S(=O)(=O)c3cccnc3)CC2)c1 ?
Arbovirus inh: -7; Mtb betalactam: 5; Mtb growth: 7%; RecA splice inh: 2.7; YopH inh: -7

How did COC(C(=O)N/N=C/c1ccc(OCC(=O)N2CCOCC2)cc1)c1ccccc1 (configuration not stated) do in these assays?
Mtb betalactam: -2; RecA splice inh: -1.5

Results for CCN1C[C@]2(COC(=O)c3ccccc3N)CC[C@H](OC)C34[C@@H]5C[C@H]6[C@H](OC)[C@@H]5[C@](O)(C[C@@H]6OC)[C@@](O)([C@H]13)[C@@H](OC)[C@@H]42 ?
Mtb betalactam: inconclusive; RecA splice inh: -2.0

What do the screens show for `O=C(N/N=C/c1ccccn1)c1cccs1`?
Arbovirus inh: -16; Mtb betalactam: 83; Mtb growth: 4%; RecA splice inh: -0.9

What do the screens show for `CCN(CC)C(=O)Cn1cc(SCC(=O)NCc2ccco2)c2ccccc21`?
Arbovirus inh: 20; Mtb betalactam: 9; Mtb growth: -4%; RecA splice inh: -1.1

How did O=Cc1c(NCCc2ccc(F)cc2)c2ccccc2[nH]c1=O do in these assays?
Mtb betalactam: -4; RecA splice inh: -0.1

What do the screens show for `COc1ccc(N(CC(=O)Nc2cc(Cl)ccc2C)S(=O)(=O)c2c(C)n[nH]c2C)cc1`?
Mtb betalactam: 99; RecA splice inh: 4.5

Results for NC(=O)CC(NC(=O)c1ccccc1)c1ccc(NCc2ccccn2)c([N+](=O)[O-])c1 (configuration not stated) ?
Mtb betalactam: 2; RecA splice inh: 0.1

Results for Cc1ccc(/C=N\NC(=O)c2csnn2)cc1 ?
Arbovirus inh: -8; Mtb growth: 0%; RecA splice inh: 2.9; YopH inh: 13

How did COc1cccc2sc3ccc(C#CC4(O)CCCCC4)cc3c(=O)c12 do in these assays?
Mtb betalactam: -6; RecA splice inh: -402

What do the screens show for `COc1ccc(NS(=O)(=O)c2cccc(C(=O)N/N=C/c3ccccn3)c2)cc1`?
Arbovirus inh: -11; Mtb betalactam: -1; Mtb growth: -5%; RecA splice inh: 0.6

How did CC(=O)OC(C[N+]1(C)CCCCCC1)c1ccccc1 (configuration not stated) do in these assays?
Mtb betalactam: 8; RecA splice inh: 0.4

How did CC[C@@H]1CC=C[C@H]2[C@H]1C(=O)N(Cc1ccccc1)[C@H]2c1ccoc1 do in these assays?
Mtb betalactam: 2; Mtb growth: -4%; RecA splice inh: 15

How did Cc1nn2c(nc1=O)SCC(c1ccccc1)=N2 do in these assays?
Arbovirus inh: -6; Mtb betalactam: 2; Mtb growth: -1%; RecA splice inh: 1.3; YopH inh: 14

What do the screens show for `CCOC(=O)c1[nH]nc(-c2c(O)cc(C)cc2O)c1-c1csc(C)n1`?
Arbovirus inh: 6; Mtb betalactam: 1; Mtb growth: -5%; RecA splice inh: -1.4; YopH inh: 2

Quoted at random: two records from the list, in no set order.
What do the screens show for `COc1ccc(N(CC(=O)Nc2cc(Cl)ccc2C)S(=O)(=O)c2c(C)n[nH]c2C)cc1`?
Mtb betalactam: 99; RecA splice inh: 4.5

What do the screens show for `CCN(CC)C(=O)Cn1cc(SCC(=O)NCc2ccco2)c2ccccc21`?
Arbovirus inh: 20; Mtb betalactam: 9; Mtb growth: -4%; RecA splice inh: -1.1

Source: PubChem
